Screening results deposited in PubChem BioAssay by National Center for Advancing Translational Sciences (NCATS).
VDR inh = blocks the human vitamin D receptor | Potency, µM, without a hit: max response, negative = inhibition, usual class: inhibitors | VDR-SRC2-3 peptide fluorescence polarization, 2 h | hit rate 0.93% among 400,000 | AID 504847 | P11473; active = well fitted inhibition curve with a large enough effect; inconclusive = small, poorly fitted or top-dose-only effect, or another doubt; inactive = no such curve, though single readings can be large or run the other way; note: series mostly up to about 120 µM
Target sequence (P11473 whole entry, looked up): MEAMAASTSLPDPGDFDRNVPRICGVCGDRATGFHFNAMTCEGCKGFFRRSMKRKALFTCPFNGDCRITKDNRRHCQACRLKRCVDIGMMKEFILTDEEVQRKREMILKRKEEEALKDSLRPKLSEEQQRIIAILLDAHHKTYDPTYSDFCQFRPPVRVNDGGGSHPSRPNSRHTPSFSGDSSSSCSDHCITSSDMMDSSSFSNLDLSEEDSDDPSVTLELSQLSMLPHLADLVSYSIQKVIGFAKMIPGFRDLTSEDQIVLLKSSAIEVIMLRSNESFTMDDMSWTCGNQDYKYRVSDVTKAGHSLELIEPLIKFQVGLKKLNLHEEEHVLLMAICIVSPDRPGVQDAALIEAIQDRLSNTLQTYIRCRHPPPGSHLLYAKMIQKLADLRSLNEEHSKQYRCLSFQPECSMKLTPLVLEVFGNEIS
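Fluorescence polarization assay of small-molecule disruption of VDR binding to coregulator peptide SRC2-3. Compounds and controls pin-transferred, then read after 2 h incubation at ambient room temperature.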
* marks the source's active call; other numbers are inactive results; u = inconclusive; & = joins results of further samples; [ ] = remark or other dose. % is set by controls: 0 for no effect and ±100 for the full control effect; potency is the fitted concentration of half-maximal effect.

VDR inh | structure
16% | CCOC(=O)N/C(N)=N/c1nc2ccccc2s1
14% | CC(NC(=O)Nc1ccc(Cl)c(Cl)c1)C(c1ccccc1)N1CCOCC1 (stereo not given)
15% | CCN1C(=O)/C(=C/N(C)c2ccccc2)OC1=S
5% | CCN(CCCNC(=O)CN1N=C(c2ccccc2)CCC1=O)c1cccc(C)c1
1% | COc1cc(-c2noc(-c3ccc(NC4CCCCC4)c([N+](=O)[O-])c3)n2)cc(OC)c1OC
5% | O=C(Nc1ccccc1C(=O)N1CCCCC1)c1cccc(S(=O)(=O)N2CCOCC2)c1
5% | CN(CCOc1ccc(Cl)cc1)CC(=O)Nc1ccc(OC(F)F)cc1
-2% | COn1c(=S)[nH]c2ccccc2c1=O
-1% | Cc1cc(C(=O)N(NC(=O)C(C)C)c2ccccc2)cs1
-1% | COc1ccc(-n2ccnc2SCC(=O)NCc2ccc3c(c2)OCO3)cc1
-3% | Cc1nc2scc(-c3cccs3)c2c(=O)[nH]1
-6% | O=C(Nc1nnc(-c2ccc3c(c2)CCCC3)o1)c1c(F)cccc1F
-2% | O=c1[nH]c(SCc2ccccc2)nc2[nH]ncc12
-1% | Cc1cc(C)cc(NC(=O)N2CCCN(c3c(Cl)cncc3Cl)CC2)c1
-22% | COc1cc(OC)cc(-c2nc(-c3ccccc3OC)no2)c1
10% | CCOC(=O)c1c(C)[nH]c(C)c1S(=O)(=O)NCC(=O)NCc1cccc(Br)c1
13% | CCOc1ccc2nc(NC(=O)c3cnc(C)cn3)sc2c1
71µM* | Cc1cccc(OCC(=O)NC(=S)NNC(=O)c2ccncc2)c1
-6% | c1ccc2c(c1)-c1ccccc1C2N1CCOCC1
-25% | Cc1c(Cl)cccc1NC(=O)CCNC(=O)N1CC(=O)Nc2ccccc21
12% | COc1cccc(NC(=O)c2sc(-n3nc(C)c(Cc4ccccc4Cl)c3C)nc2C)c1
1% | CC(=O)NC1C(=O)N=C(SCC(=O)NC2CCCCC2)NC1=O (stereo not given)
34%[activator] | COC(=O)c1ccccc1NC(=O)c1cc([N+](=O)[O-])nn1Cc1ccccc1
20% | COc1ccccc1C(CC(=O)O)NS(=O)(=O)c1ccc2c(c1)N(C(C)=O)CC(C)O2 (stereo not given)
4% | CC(=O)Nc1ccc(Nc2ncnc3c2c(-c2ccccc2)cn3-c2ccccc2)cc1
7% | Cc1ccc(Cl)cc1NC(=O)CN1CCN(S(=O)(=O)N2CCC(C)CC2)CC1
-14% | COc1cc(/C=C(\C#N)c2ccccn2)ccc1OCC(=O)Nc1ccc(Br)cc1
-7% | COc1ccc(Cl)c(Cn2c(NCCN)nc3c2c(=O)n(C)c(=O)n3C)c1
-2% | Oc1ccc(C=Nc2cccc3ccccc23)c(O)c1
0% | Cc1cccc(C)c1NC(=S)N(CCCN1CCCCC1)Cc1ccco1
-10% | CCOC(=O)CNC(=O)c1ccc2[nH]c3ccccc3c2c1
-8% | O=C1CC(N2CCN(c3ccccc3)CC2)C(=O)N1c1cccc(Br)c1 (stereo not given)
-9% | COc1ccc(C)cc1NC(=O)c1cccc(C(=O)Nc2cc(C)ccc2OC)n1
-2% | O=C(NC1CCCCC1)C(c1ccccc1)N1CCc2ccccc21 (stereo not given)
-20% | COc1ccc(S(=O)(=O)N2CCCCCC2)cc1C(=O)N(C)Cc1ccccc1F
0% | O=C1c2ccccc2C(=O)N1CCCCN(C(=O)c1ccco1)c1ccc(Cl)cc1
-8% | COc1ccc(C(=O)NNC(=O)c2ccc(S(=O)(=O)N3CC(C)OC(C)C3)cc2)cc1 (stereo not given)
17% | COc1ccc(OC)c(NC(=O)CSCC(=O)O)c1
-19% | O=C(O)c1nccnc1C(=O)Nc1ccccc1-c1ccccc1
14% | O=C(Cn1nc(N2CCN(c3ccccc3)CC2)ccc1=O)NCc1cccc(Cl)c1

VDR inh: hit marks shown above
VDR inh | structure
71µM* | Cc1cccc(OCC(=O)NC(=S)NNC(=O)c2ccncc2)c1

Next entries follow.
VDR inh | structure
-4% | O=C(NC1CCCC1)c1ccc(Br)c(S(=O)(=O)N2CCCCC2)c1
-1% | CC(Oc1ccc2ccc(=O)oc2c1)C(=O)NC1CCN(Cc2ccccc2)CC1 (stereo not given)
-10% | CCc1cccc(C)c1NC(=S)NCc1ccc2c(c1)cc(C)n2C
10% | CN(CC(O)COc1ccc(OCC(O)CN(C)C2CCCCC2)cc1)C1CCCCC1 (stereo not given)
-11% | CCOc1ccc(OCCC(=O)NNC(=O)c2cc(C)oc2C)cc1
-24% | CCCc1cc2c(-c3ccccc3)cc(=O)oc2cc1OCc1ccc(C(=O)O)o1
-12% | O=C(CC1CCCC1)N1CCN(S(=O)(=O)c2ccc(F)cc2)CC1
-4% | CCC(Sc1nc2cc(OC)c(OC)cc2c(=O)n1Cc1ccco1)C(=O)NCCOC (stereo not given)
5% | O=C(O)CCCCCNC(=O)/C(=C\c1ccco1)NC(=O)c1ccco1
-6% | Cc1c(/C=C/C(=O)c2ccccc2O)cnn1C
-17% | O=C(NCc1ccccc1Cl)NC(=O)c1ccccc1
-3% | O=S(=O)(Nc1nc2ccccc2s1)c1cnc(Cl)c(Br)c1
-2% | C[C@H]1CN=C(Nc2ccccc2)N1CCC1CCCCC1
-11% | CCCCn1nc(C(=O)Nc2ccc(S(=O)(=O)Nc3ncccn3)cc2)c2ccccc2c1=O
-11% | COc1ccc(CNC(=O)C2CCC(=O)N(CCCN3CCCC3=O)C2)cc1 (stereo not given)
-17% | Cc1cc(N2CCC(C(=O)Nc3ccc(F)cc3C)CC2)n2nc(C)c(-c3ccc(Cl)cc3)c2n1
-52% | CCc1c(C)sc(NC(=O)c2cccs2)c1C(N)=O
-6% | COc1ccc(C(=O)Nc2ccc3nc(SCC(=O)N4CCCc5ccccc54)sc3c2)cc1
-5% | NC1=NC(=O)/C(=C/C=C/c2cccs2)S1
0% | O=C(Nc1ccccc1)Nc1ccc2snnc2c1
1% | Cc1cccc(N2C(=O)SC(N(C)c3ccccc3)C2=O)c1 (stereo not given)
-5% | C=CCc1cccc(OC)c1OCCOCCn1ccnc1
-9% | CCN1CCc2c(C#N)c(N3CCCCC3)nc(N3CCOCC3)c2C1
-5% | Cc1cccc(CN2CCSCC2)c1
6% | CCn1c(CCc2ccccc2)nc2ccccc21
-19% | Cc1ccc(S(=O)(=O)Nc2ccccc2)cc1C(=O)N1CCCC1
14% | CCN(CC)c1ccc(/C=c2/sc3nnc(-c4ccccc4C)n3c2=O)cc1
10% | c1ccc(CN2CCN(Cc3nnc(-c4ccccc4)o3)CC2)cc1
-11% | Cc1ccccc1C(=O)OC1CCN(C)CC1
1% | COc1cccc2[nH]c(C(=O)NC(C)c3ccccc3)cc12 (stereo not given)
-6% | COc1ccc(NC(=O)Nc2ccccc2C(N)=O)cc1
-4% | Nc1nnc(-c2ccncc2)s1
-2% | COC(=O)C(C)n1nc(C)n(-c2ccc(C)cc2)c1=O (stereo not given)
4% | Nc1ncnc2c1ncn2[C@@H]1O[C@H](CNCc2c(OCc3ccccc3F)ccc3ccccc23)[C@@H](O)[C@H]1O
-2% | COc1ccc2c(c1)cc1c(=O)n(CC(=O)NC3CCCCC3)nc(C)n12
16% | CC(O)c1nc2ccccc2n1C(C)c1ccccc1 (stereo not given)
0%&-9% | COc1ccc(CCNC(=O)c2cn(C)c3ccc(S(=O)(=O)N4CCOCC4)cc3c2=O)cc1OC
1% | COc1ccc(CN2C(=O)c3ccccc3C(/C=N/OCc3ccc(Cl)cc3)C2=O)cc1 (stereo not given)
7% | O=C1Nc2ccccc2N(O)N1c1cc(-c2cccc(Cl)c2)no1
1% | CCOC(=O)N1CCN(C(=O)CN(C)S(=O)(=O)c2ccc3c(c2)C(C)(C)C(=O)N3C)CC1
7% | Cc1cccc(NC(=O)c2cc([N+](=O)[O-])ccc2Cl)c1O
-18% | CCCCC(=O)N(c1ccc(C(=O)O)cc1)c1nc(-c2ccc(Cl)cc2)c(CC)s1
-23% | Cc1ccc(OCc2nnc(SCC(=O)Nc3nccs3)n2-c2ccccc2)cc1C
u | Cc1ccc2c(c1)C(=O)CC1(CCCC1)O2
7% | c1ccc(-c2cc3c(ccc4nonc43)nn2)cc1
-5% | CN(C)/C=N/c1cc(=O)[nH]c(=O)n1C
-5% | O=C(CCN1C(=O)COc2ccccc21)NCCN1CCN(c2ccccc2F)CC1
2% | Cc1ccc(C(=O)NC2CC(C)(C)NC(C)(C)C2)cc1C
4% | CC(C)[C@H](NC(=O)[C@H](CC(=O)O)NC(=O)CNC(=O)[C@@H](N)CCCN=C(N)N)C(=O)O
17% | CCOc1ccc(NC(=O)C(CC(=O)O)Cc2ccccc2)cc1 (stereo not given)
5% | COc1ccc(/C=C/C(=O)NCC(=O)N=Nc2c(O)[nH]c3ccc([N+](=O)[O-])cc23)cc1
-11% | COc1ccc(C(=O)N/N=c2\oc3ccccc3cc2C(=O)NCc2ccccc2)cc1
u | O=S(=O)(O)c1cc(Cl)cc(N=Nc2ccc(O)cc2O)c1O
4% | COc1ccccc1N1CCN(CCN2C(=O)C3CCCCN3C2=O)CC1 (stereo not given)
7% | CCCn1c2ccccc2c2cnn(CC(=O)NCCc3ccc(OCC)c(OCC)c3)c(=O)c21
6% | CC(C)c1ccc(Nc2cc(C(=O)NC3CCCCC3)c3ccccc3n2)cc1
1% | CCn1c(C(=O)Nc2cc(C)cc(C)c2)cc2sc(Cl)cc21
0% | CSc1nc(N)nc(C(C)C)n1
-5% | O=C(NCCNC(=O)c1ccc(F)cc1)c1ccc(F)cc1
16% | Cc1ccccc1-n1c(SCC(=O)N(C)C2CCS(=O)(=O)C2)nnc1-c1ccncc1 (stereo not given)

Next part
VDR inh | structure
1% | CCN=C1SC(C(=O)Nc2cccc(Br)c2)CC(=O)N1CC (stereo not given)
-3% | Cc1[nH]nc2c1/C(=N\O)CC(C)(C)C2
u | N#C/C(=C\c1ccc(O)c(O)c1)C(=O)Nc1cccc2ncccc12
-13% | CCOC(=O)C(=CNc1cccc(N)n1)C(=O)OCC
-10% | Cn1cc([N+](=O)[O-])c(C(=O)NCc2ccccc2)n1
1% | Cc1ccc(CN2CCN(C3CCN(C(=O)c4ccc(C)cc4)CC3)C(=O)C2=O)cc1
-9% | CCN(CC)S(=O)(=O)c1ccc(Cl)c(NC(=O)COC(=O)c2ccc(O)cc2)c1
-5% | Brc1csc(CN2CCc3nc(Nc4ccccc4)ncc3C2)c1
-1% | O=[N+]([O-])c1cccc(-c2c(-c3ccccc3)ncc3ccc(F)cc23)c1
-18% | CCC(C)NC(=O)C(=O)NCC1CCCN1CC (stereo not given)
-19% | CCOC(=O)C1CCCCN1S(=O)(=O)c1cc2c(cc1C)NC(=O)CO2 (stereo not given)
5% | O=C(NCC1CCCCC1)c1cccc(S(=O)(=O)N2CCCC2)c1
-1% | Cc1ccc(/C=C(\C#N)C(=O)NCC2CCCO2)o1 (stereo not given)
8% | COc1cccc(C2=NOC(C(=O)Nc3ccc(C(C)=O)cc3)C2)c1 (stereo not given)
-6% | CCC(CC)NC(=O)c1cc([N+](=O)[O-])ccc1N1CCOCC1
-13% | O=C(NCC1COc2ccccc2O1)C1CCN(S(=O)(=O)c2ccccc2)CC1 (stereo not given)
1% | CCC(=O)Nc1nc(CC(=O)Nc2ccccc2OC)cs1
-8% | COc1cccc(C(=O)Nc2cc3c(cc2C(C)=O)OCCO3)c1
18% | COc1ccc(CCNC(=O)c2ccc3c(c2)NC(=O)C(N2CCOCC2)S3)cc1OC (stereo not given)
-3% | Cc1nn(S(=O)(=O)c2ccc(F)cc2)c(C)c1S(=O)(=O)N1CCOCC1
9% | Cc1ccccc1CNS(=O)(=O)c1ccccc1[N+](=O)[O-]
u | CCCCc1ccc(/C=C2/C(=O)ON=C2c2ccccc2)s1
3% | CCOc1cc(CNC(=O)c2ccc3c(c2)N(C)C(=O)C2CCCCN32)ccc1OC (stereo not given)
2% | CCOC(=O)c1cn(-c2ccc([N+](=O)[O-])cc2)c2cc(Cl)c([N+](=O)[O-])cc2c1=O
-6% | NC(=O)c1ccc(NC(=O)CNCc2ccccc2Cl)cc1
5% | CCNC(=S)NNC(=O)c1cc(C2CC2)nc2ccccc12

Taken from the listing for reference:
VDR inh | structure
u | N#C/C(=C\c1ccc(O)c(O)c1)C(=O)Nc1cccc2ncccc12
-13% | CCOC(=O)C(=CNc1cccc(N)n1)C(=O)OCC
-10% | Cn1cc([N+](=O)[O-])c(C(=O)NCc2ccccc2)n1
1% | Cc1ccc(CN2CCN(C3CCN(C(=O)c4ccc(C)cc4)CC3)C(=O)C2=O)cc1
-9% | CCN(CC)S(=O)(=O)c1ccc(Cl)c(NC(=O)COC(=O)c2ccc(O)cc2)c1
-5% | Brc1csc(CN2CCc3nc(Nc4ccccc4)ncc3C2)c1
-1% | O=[N+]([O-])c1cccc(-c2c(-c3ccccc3)ncc3ccc(F)cc23)c1
-18% | CCC(C)NC(=O)C(=O)NCC1CCCN1CC (stereo not given)
-19% | CCOC(=O)C1CCCCN1S(=O)(=O)c1cc2c(cc1C)NC(=O)CO2 (stereo not given)
5% | O=C(NCC1CCCCC1)c1cccc(S(=O)(=O)N2CCCC2)c1
-1% | Cc1ccc(/C=C(\C#N)C(=O)NCC2CCCO2)o1 (stereo not given)
8% | COc1cccc(C2=NOC(C(=O)Nc3ccc(C(C)=O)cc3)C2)c1 (stereo not given)
-6% | CCC(CC)NC(=O)c1cc([N+](=O)[O-])ccc1N1CCOCC1
-13% | O=C(NCC1COc2ccccc2O1)C1CCN(S(=O)(=O)c2ccccc2)CC1 (stereo not given)
1% | CCC(=O)Nc1nc(CC(=O)Nc2ccccc2OC)cs1
-8% | COc1cccc(C(=O)Nc2cc3c(cc2C(C)=O)OCCO3)c1
18% | COc1ccc(CCNC(=O)c2ccc3c(c2)NC(=O)C(N2CCOCC2)S3)cc1OC (stereo not given)
-3% | Cc1nn(S(=O)(=O)c2ccc(F)cc2)c(C)c1S(=O)(=O)N1CCOCC1
9% | Cc1ccccc1CNS(=O)(=O)c1ccccc1[N+](=O)[O-]
u | CCCCc1ccc(/C=C2/C(=O)ON=C2c2ccccc2)s1
3% | CCOc1cc(CNC(=O)c2ccc3c(c2)N(C)C(=O)C2CCCCN32)ccc1OC (stereo not given)

Only part of the results is shown; the hit share may differ from the screen's.
